# Bioassay records deposited in PubChem by National Center for Advancing Translational Sciences (NCATS).
# Lassa entry inh: inhibitors of Lassa virus binding or cell entry; 1.2% of 300,000 active; Potency, µM (highest dose often 37.9 µM), for the others: top-dose activity change, negative = inhibition, hits mostly inhibitors; Lassa virus pseudotype entry inhibition, cell reporter; control for the full effect not named in the record; AID 540256; active means well fitted inhibition curve with a large enough effect; inconclusive means small, poorly fitted or top-dose-only effect, or effect the other way; inactive means flat fitted curve, though single readings scatter; tested in HEK293 cells; further: on the % scale 0 is the no-effect control and ±100 the full control effect; nearly all actives have a fitted effect of over 50% in size; luciferase read-out
# NS1 inh: inhibitors of influenza NS1 protein function; S. cerevisiae slowed by influenza A NS1, growth recovery by OD600; Potency, µM (doses to about 46.1 µM), without a hit: at the highest dose activity, positive = more growth; 0.4% of 270,000 active; AID 2326; active means well fitted rising curve with a large enough effect; inconclusive means small, poorly fitted or top-dose-only effect; inactive means no such curve, though single readings can be large or run the other way; further: nearly all actives have a fitted effect of over 50% in size
#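 A cell-based growth assay was used: compounds that relieve NS1-induced slow growth of budding yeast raise OD600. Assay medium was yeast nitrogen base with ammonium sulphate and -URA supplement, pH 6.0, with 2% galactose.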
# StopGo reporter: FMDV 2A StopGo reporter, luciferase signal | human cells with a luciferase reporter of 2A StopGo recoding; control for the full effect not named in the record | AID 1159524 | 1.2% of 410,000 active | Potency, µM (doses to about 57.9 µM), without a hit: at the highest dose signal change, negative = less light; active = well fitted falling curve with a large enough effect; inconclusive = small, poorly fitted or top-dose-only effect; inactive = no such curve, though single readings can be large or run the other way; tested in HEK293T cells; further: on the % scale 0 is the no-effect control and ±100 the full control effect; nearly all actives have a fitted effect of over 45% in size; luciferase light after 4 h
# RE007 growth inh: less growth of the S. pombe RE007 Vpr strain; S. pombe RE007 Vpr strain, BacTiter-Glo ATP luminescence, 24 h; control for the full effect not named in the record; Potency, µM (doses to about 92.2 µM), inactives show at the highest dose activity change, negative = less growth; 0.21% of 360,000 active; AID 651644; active = well fitted falling curve with a large enough effect; inconclusive = small, poorly fitted or top-dose-only effect; inactive = no such curve, though single readings can be large or run the other way;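 further: on the % scale 0 is the no-effect control and ±100 the full control effect; nearly all actives have a fitted effect of over 50% in size; the assay follows cell death caused by Vpr and the record does not say whether a fall means rescue or toxicity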
#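 Fission yeast RE007 carrying one integrated HIV-1 vpr copy, seeded at OD 0.01 in PMG+AL medium with 23 nL pinned compound. Grown 24 h at 30 degrees; viability read by BacTiter-Glo luminescence after 5 min.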
# MARV entry inh: inhibitors of Marburg virus binding or cell entry | Marburg virus pseudotyped entry inhibition, cell reporter; control for the full effect not named in the record; about a third of the inactives were read at about 46 µM | Potency, µM (series often up to 37.8 µM), inactives show top-dose activity change, negative = inhibition, hits mostly inhibitors | 1.8% of 300,000 active; active = well fitted inhibition curve with a large enough effect; inconclusive = small, poorly fitted or top-dose-only effect, or effect the other way; inactive = flat fitted curve, though single readings scatter; tested in HEK293 cells; about a fifth of its hits are not listed in these tables; further: on the % scale 0 is the no-effect control and ±100 the full control effect; luciferase read-out
# Cruzain inh Det: blocks cruzain activity in presence of Triton detergent | P25779 | purified cruzain, Z-FR-AMC fluorescence, 0.01% Triton | Potency, µM, without a hit: max response, negative = inhibition, most hits filed as inhibitors | 0.43% of 200,000 active | AID 1478;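 further: plate controls were neutral wells for no effect and buffer without enzyme for full effect; nearly all actives have a fitted effect of over 40% in size; top concentration of the series not given in the record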
# Target sequence (P25779 123-467 limits assumed): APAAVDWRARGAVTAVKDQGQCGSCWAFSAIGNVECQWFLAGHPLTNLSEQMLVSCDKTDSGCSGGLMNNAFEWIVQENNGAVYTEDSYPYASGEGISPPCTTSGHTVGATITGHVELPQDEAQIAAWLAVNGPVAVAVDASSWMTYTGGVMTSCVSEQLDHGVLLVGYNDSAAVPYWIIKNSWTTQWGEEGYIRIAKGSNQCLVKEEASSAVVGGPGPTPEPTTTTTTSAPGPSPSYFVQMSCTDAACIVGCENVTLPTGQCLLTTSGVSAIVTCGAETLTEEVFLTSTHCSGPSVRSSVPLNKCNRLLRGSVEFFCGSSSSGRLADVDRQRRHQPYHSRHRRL
#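 Cruzain (1.5 nM) preincubated 15 min at RT with compound in 100 mM sodium acetate pH 5.5, 5 mM DTT, 0.01% Triton X-100. Reaction started with 2 uM Z-FR-AMC; AMC fluorescence (ex 360/em 450 nm) change over 60 s gave rate.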
# SARS PLP yeast: blocks SARS-CoV papain-like protease in a yeast assay; S. cerevisiae expressing SARS-CoV PLpro, growth rescue; control for the full effect not named in the record; Potency, µM (series often up to 32.9 µM), inactives show top-dose activity, positive = growth rescue; 0.19% of 330,000 active; AID 485353; active means well fitted rising curve with a large enough effect; inconclusive means small, poorly fitted or top-dose-only effect; inactive means no such curve, though single readings can be large or run the other way; further: 0% is about no effect; nearly all actives have a fitted effect of over 55% in size; growth read by luminescence after 48 h
# Cruzain inh noDet: inhibitors of Trypanosoma cruzi cruzain without detergent | 2.3% of 200,000 active | AID 1476 | purified cruzain, Z-FR-AMC fluorescence, no detergent | Potency, µM, for the others: max response, negative = inhibition, actives largely listed as inhibitors;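 further: plate controls were enzyme without inhibitor for no effect and buffer without enzyme for full effect; nearly all actives have a fitted effect of over 40% in size; top concentration of the series not given in the record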
#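 Purified cruzain at 1.5 nM, pre-incubated 15 min with compound at room temperature in 100 mM sodium acetate pH 5.5, 5 mM DTT, 0.00005% Triton X-100. Reaction started with 2 uM Z-FR-AMC; AMC fluorescence increase over 60 s gives rate.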
# Starred values were filed as active, the others as inactive; ? = inconclusive; nt = not tested or not shown; & = joins results of further samples; [ ] = remark or other dose. Unless noted, the call rests on the fitted dose curve; in most records, active means well fitted curve in the direction sought with a large enough effect; inconclusive means small, poorly fitted or top-dose-only effect, or another doubt; inactive means no such curve, though single readings can be large; an effect the other way counts as inactive or inconclusive. Potency means the concentration at half of the fitted maximal effect. Not a hit list. Share with any hit: about 4.7%.
SMILES,Lassa entry inh,NS1 inh,StopGo reporter,RE007 growth inh,MARV entry inh,Cruzain inh Det,SARS PLP yeast,Cruzain inh noDet
CCOC(=O)c1c(C)c(C(=O)N(C)C2CCCCC2)c(C)n1C,17%[14.3 µM],-7%,24%,7%,-3%,0.4%,0%,-3%
Cc1ccc(C)c(Nc2nn3c(=O)c4ccc(C(=O)NCc5cccnc5)cc4nc3s2)c1,nt,16%,-7%,5%,nt,nt,2%,nt
COC(=O)c1cccc(NC(=S)Nc2ccc(Cl)c(Cl)c2)c1,-10%[46.1 µM],-84%,?,-16%,8%[46.1 µM],nt,-2%,nt
CC1NC(=S)N(C2CCCCC2)C1=O (stereo unspecified),nt,nt,2%,-17%,-1%[46.1 µM],nt,2%,nt
COc1ccc(NS(=O)(=O)c2cccc(NC(=O)NCCCl)c2)cc1,nt,nt,7%,2%,8%[46.1 µM],nt,-1%,nt
CSc1cccc(NC(=O)CNC(=O)C2CCCCC2)c1,23%[46.1 µM],-3%,40%[activator],9%,-1%[46.1 µM],nt,1%,nt
c1ccc(OCc2ccc(CCCN3CCOCC3)cc2)cc1,14%,-9%,-4%,-9%,?,nt,-2%,nt
Cc1cc(NC(=O)CSc2nnc(-c3ccoc3C)o2)no1,?,-2%,-16%,12%,17%,-1.9%,-4%,3%
CC(=NCCCN1CCCCC1)c1c(O)n(Cc2ccccc2)c(=O)[nH]c1=O,-2%,-2%,-10%,2%,?,2.0%,12%,14%
CCCNc1nc2nc3ccccn3c(=O)c2cc1C(=O)NCCN1CCOCC1,-3%[46.1 µM],8%,-11%,-31%,?,nt,1%,nt
Cc1c(CC(=O)O)c(=O)oc2c(C)c(OCc3ccc(F)cc3F)ccc12,nt,2%,3%,-3%,nt,nt,0%,nt
Nc1ccccc1C(=O)OCc1ccc([N+](=O)[O-])cc1,0%,5%,38%[activator],0%,28%[46.1 µM],nt,0%,nt
CC(C)Cc1ccc(CN2CCCC(NC(=O)c3cccc(-n4cnnc4)c3)C2)cc1 (stereo unspecified),-19%,30%,?,-7%,?,nt,-1%,nt
CCOC(=O)COc1cc(Br)c(/C=N/Nc2ccccc2)cc1OC,?,0%,-8%,193%,-19%,2.6%,-3%,-11%
COc1ccc(/C=C/C(=O)c2ccc(NC3=NCCCS3)cc2)cc1OC,-2%,nt,16µM*,-18%,?,nt,-3%,nt
CCN1CCN(C(c2ccc(F)cc2)c2nnnn2Cc2cccs2)CC1 (stereo unspecified),12%,-5%,-17%,-11%,?,1.8%,-14%,-4%
CCOC(=O)CSc1nc2sc3c(c2c(=O)n1CC)CCCC3,?,nt,-4%,nt,nt,0.0%,nt,2%
O=C(Cn1c(=O)n(Cc2ccc3c(c2)OCO3)c(=O)c2oc3ccccc3c21)Nc1ccc(F)cc1,19%[46.1 µM],nt,18%,nt,nt,3.0%,nt,-5%
O=C(CSc1nc2ccccc2c(=O)n1-c1ccccc1)NCc1ccco1,13%,-16%,-16%,-4%,-17%,1.2%,4%,1%
Cc1ccnc(-n2c(C)cc(/C=N/NC(=O)COc3cccc4cccnc34)c2C)c1,7%,0%,-17%,4%,-7%,nt,-1%,nt
O=C(N/N=C/c1c[nH]c2ccccc12)c1ccn(Cc2ccc(Cl)cc2Cl)n1,?,7%,-18%,12%,?,-3.8%,1%,?
COCC(=O)NC1CC(C)(C)Cc2c1cnn2-c1ccc(F)cc1 (stereo unspecified),nt,0%,19%,-15%,nt,nt,15%,nt
Cc1ccc(C)c(OCC(=O)Nn2c(C)nc3ccccc3c2=O)c1,5%,-4%,-36%,2%,-9%,-0.5%,-5%,0%
CCC1(CC)Cc2ccccc2C(CC(=O)N2CCOCC2)=N1,-16%,0%,-8%,10%,-12%,0.9%,2%,-2%
Cc1ccc([N+](=O)[O-])cc1NC(=O)c1ccccc1,0%,nt,-4%,-7%,0%[46.1 µM],nt,2%,nt
CCC(C)C1C(C#N)=C(N)Oc2n[nH]c(C)c21 (stereo unspecified),nt,-83%,?,-7%,nt,-3.2%,-7%,-4%
Cc1ccc(NC(=O)NC2CC(=O)N(c3ccc4c(c3)OCCO4)C2)cc1F (stereo unspecified),18%,nt,-13%,-5%,-7%,nt,4%,nt
CCOc1cc(/C=C2\C(=N)N3N=C(C)SC3=NC2=O)ccc1OCCOc1ccccc1,8%[46.1 µM],6%,1%,-5%,4%[46.1 µM],nt,-3%,nt
O=C(C1CCN(S(=O)(=O)c2ccccc2F)CC1)N1CCc2ccccc2C1,-8%,nt,-18%,-15%,-1%,nt,0%,nt
COc1cccc(COc2ccc3c(C)cc(=O)oc3c2)c1,?,-7%,28%,4%,?,nt,-2%,nt
CCOc1ccc(NC(=S)N=Nc2c(O)[nH]c3ccccc23)cc1,?,nt,-21%,5%,nt,nt,-3%,nt
COc1ccc(C2=NOC(C(=O)N(C)Cc3ccccc3)C2)cc1 (stereo unspecified),-8%[46.1 µM],nt,6%,15%,10%[46.1 µM],nt,-5%,nt
O=C(NNC(=O)C12CC3CC(CC(C3)C1)C2)c1cccc([N+](=O)[O-])c1,16%[46.1 µM],-5%,9%,5%,3%[46.1 µM],nt,-2%,nt
Cc1occc(=O)c1OC(=O)Nc1ccccc1,17%,5%,51%[activator],11%,23%,1.9%,4%,-9%
O=C(c1ccc(Cl)s1)N1CCN(c2ccccc2)CC1,nt,-7%,-1%,-3%,nt,-0.1%,27%,-15%
C/C(CC(=O)N1CCN(C=O)CC1)=N\NC(=O)c1cccc([N+](=O)[O-])c1,1%,6%,-12%,16%,11%[46.1 µM],nt,0%,nt
Cc1ncc(CSc2nccc(=O)[nH]2)c(CO)c1O,nt,7%,-5%,-8%,nt,nt,8%,nt
O=C(Nc1cccnc1)c1ccccc1-c1ccccc1,nt,8%,8%,18%,nt,nt,0%,nt
COc1ccc(OC)c(S(=O)(=O)NCC(c2ccco2)N2CCc3ccccc32)c1 (stereo unspecified),?,nt,51%[activator],-7%,?,nt,0%,nt
Cc1noc(C)c1CSc1ncnc2sc(C)c(C)c12,-6%,-20%,?,-15%,?,-9.5%,-3%,-7%
CN(Cc1c(F)cccc1Cl)C(=O)c1cccc(S(=O)(=O)NCc2ccccc2)c1,-13%,nt,42%[activator],11%,1%,nt,2%,nt
O=C(c1ccc(-c2ccccc2)cc1)C1CCCN(C(=O)c2cncs2)C1 (stereo unspecified),-27%,-66%,?,8%,3%[14.2 µM],nt,-3%,nt
CC(C)c1ccc(-c2nnc(SCC(=O)NC3CC3)n2C)cc1,-5%[46.1 µM],12%,21%,-1%,23%[46.1 µM],nt,6%,nt
COc1ccc(-c2cc(-c3cccs3)c(C#N)c(SCC(=O)NCc3ccco3)n2)cc1,?,3%,18%,-4%,0.46µM*,-6.9%,1%,7.9µM*
CCCN(C(=O)c1cn(CC(C)C)c(=O)c2cc(OC)c(OC)cc12)c1cccc(C)c1,?,nt,-22%,nt,-20%[46.1 µM],-2.4%,nt,?
N#Cc1c(SCc2ccc(Cl)cc2)sc(C(=O)c2ccccc2)c1N,?,17%,?,-2%,-30%,4.7%,6%,?
COc1ccc(OC(=O)c2nc(SCc3ccccc3C)ncc2Cl)cc1,16%[46.1 µM],nt,-28%,nt,?,-2.8%,nt,?
C1CN(CC2CCN(c3nc4nonc4nc3N3CCSCC3)CC2)CCO1,2%,0%,7%,4%,11%[14.2 µM],nt,0%,nt
O=S(=O)(Nc1ccccc1)c1ccc(-c2csnn2)cc1,-3%,1%,18%,8%,-24%[46.1 µM],nt,0%,nt
CCN(C(=O)COC(=O)CCc1c[nH]c2ccccc12)c1c(N)n(Cc2ccccc2)c(=O)[nH]c1=O,1%,nt,-14%,0%,11%,nt,0%,nt
CCC12CN(C(=O)c3ccc([N+](=O)[O-])cc3)CC(CC)(CN(C(=O)c3ccc([N+](=O)[O-])cc3)C1)C2=O,nt,-5%,-12%,-11%,nt,nt,1%,nt
O=C(Nc1ccccc1)Nc1nncs1,2%,-7%,-21%,-4%,2%,-5.6%,1%,0%
CCOC(=O)c1ccc(S(=O)(=O)N2CCN(Cc3cc4c(cc3O)OCO4)CC2)cc1,5%,nt,-9%,-5%,?,nt,2%,nt
CCCCn1c(N)c(N(CCOC)C(=O)CCNC(=O)c2ccc(Br)cc2)c(=O)[nH]c1=O,1%,nt,-3%,-11%,?,nt,-1%,nt
COc1ccc2nc(NC(=O)c3ccccc3F)sc2c1,nt,-12%,16%,-5%,nt,nt,2%,nt
COc1ccc(OC)c(-c2cc(C(=O)N/N=C/c3ccc(F)cc3)c3ccccc3n2)c1,?,nt,-13%,1%,?,nt,nt,nt
Cn1cnnc1SCC(=O)Nc1ccc(Oc2ccccc2)cc1,-3%,5%,10%,37%,-18%,nt,?,nt
CCN(CC)CCCNC(=O)Cn1cnc2sc(C)c(S(=O)(=O)N3CCN(c4ncccn4)CC3)c2c1=O,-1%,nt,2%,-6%,?,nt,-3%,nt
O=C(CNC(=O)c1ccccc1)NCc1nc2ccccc2[nH]1,-26%,nt,-18%,-5%,4%[46.1 µM],nt,1%,nt
O=C(Nc1c(F)cccc1F)c1ccc(-n2cncn2)nc1,7%,-8%,-1%,-20%,1%,2.9%,5%,0%
# Next part:
SMILES,Lassa entry inh,NS1 inh,StopGo reporter,RE007 growth inh,MARV entry inh,Cruzain inh Det,SARS PLP yeast,Cruzain inh noDet
CN(C)c1ccc(/C=C2\CCC/C(=C\c3ccccc3)C2=O)cc1,?,5%,10%,-17%,-18%&-18%,-7.0%,-29%,-11%
COc1ccc(-c2nc(CS(=O)(=O)CC(=O)NCc3ccccc3OC)c(C)o2)cc1,nt,16%,-16%,-3%,nt,nt,21%,nt
COc1cc(/C=C2\C(=O)NC(=O)N(c3ccccc3)C2=O)cc(OC)c1OC,1%,7.9µM*,?,21%,?,3.9%,11%,1%
CCOC(=O)c1cnc2nc(NCc3ccc(OCC)cc3)[nH]n2c1=O,-7%[46.1 µM],nt,-10%,nt,-1%[46.1 µM],-1.6%,nt,-4%
COc1ccc([C@@H]2[C@@H]3C(=O)N(C(C)(C)C)C(=O)[C@@H]3[C@]3(C)C(=O)N(c4ccc(C(F)(F)F)cc4)C(=O)N23)cc1,nt,-15%,18%,4%,nt,nt,-9%,nt
Cc1cnc(NC(=O)CC(C)c2ccccc2)s1 (stereo unspecified),4%[46.1 µM],-4%,3%,8%,?,nt,1%,nt
